Screening data from PubChem.
SmPrx2 inh – inhibitors of Schistosoma mansoni peroxiredoxin 2; hit rate 0.07% among 65,000; S. mansoni Prx2 activity coupled to TGR/GSH (TGR is thioredoxin glutathione reductase), NADPH fluorescence loss, qHTS; some inactives read as strong as hits; Potency, µM; AID 448; active means full or partial inhibition curve with a strong effect at the top dose; inconclusive means weaker partial or single-point curve; inactive means no accepted curve; also: series up to 57 µM; many of its hits are not listed in these tables
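Prx2 activity was followed as the loss of NADPH fluorescence (ex 365/em 450 nm), read every 30 sec for 8 min after H2O2 start. The enzyme mix (50 nM Prx2, 25 nM TGR, GSH, NADPH; pH 7.4 phosphate buffer) was incubated with compound for 15 min at room temperature first.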
Anthrax LT inh – blocks cellular internalization of anthrax lethal toxin; Potency, µM (top dose mostly 40 µM), for inactives: at the highest dose activity change, negative = inhibition, hits mostly inhibitors; hit rate 0.67% among 70,000; AID 912; Cells, anthrax lethal toxin internalization, FRET ratio (460/530); active = well fitted falling ratio curve with the 530 nm signal flat; inconclusive = other ratio curves, or a change in one channel alone; inactive = flat curves in the ratio and both channels; the % refers to the ratio; also: % is scaled to controls: 0 for no effect and ±100 for the full control effect; nearly all actives have a fitted effect of over 50% in size; tested in ME-180 cells; beta-lactamase reporter
An asterisk follows results filed as active; ? = inconclusive; nt = no result given; & = joins results of further samples; [ ] = another dose, or the depositor's remark. Potency is read from the fitted curve at half-maximal effect. Not all compounds are listed; count on the stated rates, not on these rows.

nr	Structure	Anthrax LT inh	SmPrx2 inh
1	CC1Cc2ccccc2N1S(=O)(=O)c1cccs1 (configuration not stated)	?	>57
2	Cc1nc2sc3c(c2c(=O)[nH]1)CCCC3	0.7%[8 µM]	>57
3	COCc1cc(C)nc(SCC(=O)Nc2cccc(C)c2C)c1C#N	-1.8%	>57
4	CC(C)c1ccc(S(=O)(=O)N2CCN(CC(=O)Nc3ccc4c(c3)OCO4)CC2)cc1	?	>57
5	COc1ccc(CN2CCN(c3cccc(C)c3C)CC2)cc1OC	?	>57
6	CCOC(=O)CCC(=O)NCc1ccc2c(c1)cc(C)n2C	2.9%	>57
7	Cc1nc(NCc2ccccc2)c2nc(-c3ccccc3)n(C(C)CN(C)C)c2n1 (configuration not stated)	-26.3%	nt
8	CCC(=O)c1ccc(OCC(O)CN(C)C2CCCCC2)cc1 (configuration not stated)	2.1%	nt
9	O=C(CCN1CCCCCC1)Nc1cccc(Cl)c1	-12.0%	>57
10	CCOC(=O)N1CCC(N2Cc3cccc(C(=O)NC(C)c4ccc5c(c4)OCCO5)c3C2=O)CC1 (configuration not stated)	?	>57
11	O=C(O)CCc1ccc(-c2ccc(F)cc2)n1CC(=O)O	-8.8%	>57
12	COC(=O)c1cc(CC(=O)c2ccc(O)cc2O)c(C)o1	-26.6%	>57
13	COc1cc(C)c(S(=O)(=O)N2CCCC2)cc1C	?	>57
14	Cc1cc(C)c(S(=O)(=O)N(CC(=O)NCc2cccnc2)C2CCCCC2)c(C)c1	-8.2%	>57
15	CC1(C)Cc2ccccc2-c2nc(NCCCO)n(-c3ccccc3)c(=O)c21	0.7%	nt
16	COc1ccccc1N1CCN(Cc2nc(N)nc(Nc3ccccc3)n2)CC1	0.5%	>57
17	Cc1nnc(SCCn2c(N3CC(C)CC(C)C3)nc3c2c(=O)[nH]c(=O)n3C)s1 (configuration not stated)	-2.8%	>57
18	CCOC(=O)C1CCN(C(=O)N(C)C)CC1	-4.4%	>57
19	O=C(N1CCOCC1)N(Cc1cccs1)C1CCCC1	5.5%	>57
20	CCOC(=O)c1c(-c2ccc(C)o2)csc1NC(=O)CSc1nnc(C)s1	-17.0%	>57
21	O=C(NCc1ccco1)c1cc2nc(-c3cccs3)cc(C(F)(F)F)n2n1	?	nt
22	CCOC(=O)c1csc(NC(=O)c2ccc(OC)c(OC)c2)n1	-2.1%	>57
23	Cc1c(C(N)=O)sc2nc(-c3ccccc3)cn12	8.4%	>57
24	COCCN(CC(=O)NCc1ccccc1)C(=O)CCC(=O)Nc1nccs1	6.5%	>57
25	O=C(COc1ccc(Cl)cc1Cl)N(Cc1ccco1)C1CCS(=O)(=O)C1 (configuration not stated)	nt	>57
26	CNC(=O)c1c(NC(=O)c2ccc(S(=O)(=O)N3CCOCC3)cc2)sc2c1CCC2	10.0%	>57
27	COc1nc(N)nc(N2CCOCC2)n1	12.2%	>57
28	COc1ccc(CNS(=O)(=O)c2ccc(C3CNC(=O)C3)cc2)cc1 (configuration not stated)	7.3%	>57
29	NC(=O)CSc1nnnn1-c1ccc(OC(F)(F)F)cc1	-9.0%	>57
30	C[N+](C)(C)CC#CCN1CCCC1=O	?	>25.6&>57
31	O=C(NCc1cccs1)c1ccccc1F	-7.3%	nt
32	COc1ccccc1-c1cc(C(F)(F)F)nc(S(=O)(=O)CCCC(=O)N2CCOCC2)n1	1.58µM*	>57
33	COCCOC(=O)C1=C(C)N=C2SCCC(=O)N2C1c1ccc(C(=O)OC)cc1 (configuration not stated)	-2.4%	>57
34	O=C(CSc1nnc(C2CCCCC2)o1)N1CCCCC1	-0.8%	>57
35	COc1cc(CNc2nc3ccccc3[nH]2)cc(OC)c1OC	-4.0%	>57
36	CCCC(=O)N1CCN(c2ccc(NC(=O)c3cc4ccccc4o3)cc2Cl)CC1	6.31µM*	>57
37	CN(C)c1ncc2nc(-c3ccc(F)cc3)c(=O)n(C3CC3)c2n1	?	>57
38	CCC(C)Nc1nc2c(c(=O)[nH]c(=O)n2C)n1CCC(C)C (configuration not stated)	4.4%	>57
39	COc1ccc(CCNC(=O)CSc2nc(N)c(C#N)c(-c3cccs3)c2C#N)cc1OC	?	>57
40	Cc1ccccc1OCCCC(=O)Nc1nccs1	-24.4%	>57
41	CCCCCCNC(=O)C(C#N)c1nc2ccccc2nc1N1CCOCC1 (configuration not stated)	-8.3%	>57
42	O=C(O)CCC(=O)N1CCc2cc(S(=O)(=O)Nc3ccc4c(c3)OCCO4)ccc21	-13.4%	>57
43	Cc1cccc(NC(=O)C2CCCN(S(=O)(=O)c3c(C)nn(C)c3C)C2)n1 (configuration not stated)	-12.7%	>57
44	Nn1c(SCC(=O)NC(=O)NCc2ccccc2)nnc1C1CC1	-2.8%	>57
45	CC(C)C[C@@H](CC(=O)N[C@H](CC(=O)N[C@@H]1CCNC[C@H]1C(=O)N[C@H](CC(=O)N[C@@H](CCC(=O)O)CC(=O)O)CC(C)C)C(C)C)NC(=O)[C@@H]1CCCC[C@H]1N	-2.9%	>57
46	O=C(NCc1ccco1)c1sc2cccc(F)c2c1Cl	-24.0%	>57
47	Cc1cccn2cc(-c3ccc(S(=O)(=O)N4CCOCC4)cc3)nc12	-17.6%	>57
48	CN1C(=O)SC(Nc2ccc(F)cc2)C1=O (configuration not stated)	-0.4%	>57
49	CCCCn1c(N)c(N(CCC(C)C)C(=O)CSc2nnc3ccccn23)c(=O)[nH]c1=O	25.8%	>57
50	O=C(c1ccco1)n1nc(-c2ccccc2)nc1NCc1ccco1	3.2%	>57
51	O=C(NC1CC1)C1CCC(=O)N1C1CCCC1 (configuration not stated)	-0.2%	>57
52	CC12C(=O)N(c3cccc4cccnc34)C(=O)C1C1C=CC2C1 (configuration not stated)	6.5%	>57
53	CCN(CCNC(=O)C1CCN(S(=O)(=O)CC)CC1)c1ccccc1	3.3%	>57
54	CSc1ccc(C(=S)N2CCN(CCO)CC2)cc1	14.3%	>57
55	CCCC(=O)N1CCN(c2ccc(NC(=O)c3cc4ccccc4o3)cc2)CC1	-8.6%	>57
56	O=C(N1CCOCC1)N1CCN(CC(O)COc2ccc3ccccc3c2)CC1 (configuration not stated)	3.3%	>57

Continued:
nr	Structure	Anthrax LT inh	SmPrx2 inh
57	CC(=O)Nc1ccc(OC(F)(F)C(F)C(F)(F)F)c(NC(C)=O)c1 (configuration not stated)	-3.7%	>57
58	CN(C)CCN1C(=O)C(=O)/C(=C(/O)c2ccc(S(=O)(=O)N3CCOCC3)cc2)C1c1ccccc1 (configuration not stated)	0.8%	nt
59	N=C1C(c2ccccc2)=C(O)C2CCc3ccccc3N12 (configuration not stated)	-0.8%	>57
60	O=C(CN1CCN(c2ncccn2)CC1)N(Cc1ccccc1)c1ccc(F)cc1	-18.3%	>57
61	CCOC(=O)C1CCCN(C(=O)N2CCOCC2)C1 (configuration not stated)	-6.2%	nt
62	COCCn1c(=S)[nH]c2cc(C(=O)N3CCC(C(N)=O)(N4CCCCC4)CC3)ccc2c1=O	-6.8%	>57
63	COc1cccc(C(=O)N2CCCc3ccccc32)c1	-14.8%	>57
64	CCOC(=O)C1C(=O)NC(N2CCN(CC)CC2)=NC1c1ccccc1 (configuration not stated)	?	nt
65	CCOc1cc(C(=O)Nc2ccc3c(c2)OCO3)ccc1OC(F)F	?	>57
66	CC(=O)N1C(=O)C2(C(C#N)=C(N)Oc3c2c(C)nn3-c2ccccc2)c2ccccc21 (configuration not stated)	2.9%	>57
67	COc1ccccc1-c1c(C)nn2c(C)c(C(C)=O)cnc12	1.0%	>57
68	CCc1nnc(NC(=O)c2cccc(S(=O)(=O)N3CCN(c4ccccc4)CC3)c2)s1	-21.3%	>57
69	O=C(Nc1ccccc1N1CCCC1)c1ccco1	?	>57
70	O=C(Nc1nccs1)c1ccc(S(=O)(=O)NCC2CCCCC2)cc1	-15.3%	>57
71	CCCCc1ccc(NC(=O)CC(C)=O)cc1	9.5%	nt
72	O=C(CCC1N=C2c3ccccc3N=C(SCc3ccc(F)cc3)N2C1=O)NCc1ccco1 (configuration not stated)	17.6%	>57
73	COc1ccc2c(c1)C1CC(C)(NC(=O)C1C(=O)c1ccccc1)O2 (configuration not stated)	18.6%	>57
74	Cc1ccc2nc(NC3=NCN(Cc4ccccc4)CN3)nc(C)c2c1	-3.6%	>57
75	O=[N+]([O-])c1ccccc1CCO	-2.9%	nt
76	COc1ccc(OC)c(S(=O)(=O)N2CCC(C(=O)N3CCN(Cc4ccccc4)CC3)CC2)c1	11.6%	>57
77	COc1ccc(S(=O)(=O)CCC(=O)N2c3ccccc3CC2C)cc1 (configuration not stated)	-13.7%	>57
78	Cc1cc(N2CCN(S(=O)(=O)c3ccc4c(c3)OCCO4)CC2)n2ncnc2n1	1.8%	>57
79	Cc1cccc(-n2c(SCC(N)=O)nnc2-c2ccccn2)c1C	10.1%	>57
80	COc1ccccc1CN1CC2(CCN(C(=O)c3cccc(F)c3)CC2)C1	8.0%	>57
81	Cc1cnc(NC(=O)CSc2nnc(-c3ccncc3)n2C2CCCCC2)s1	?	>57
82	CCOC(=O)c1c2n(c3ccc(O)cc13)CCCCC2	2.9%	>57
83	COc1ccc(CNc2nc(SC)n[nH]2)cc1OC	?	>57
84	COc1ncc2nc(-c3ccccc3)c(=O)n(C[C@H]3CCCO3)c2n1	8.9%	>57
85	Cc1ccc(S(=O)(=O)NCC(=O)N(CC(=O)NCc2ccco2)Cc2ccc3c(c2)OCO3)cc1	9.9%	>57
86	CCOC(=O)c1c(NC(=O)C(F)(OC)C(F)(F)F)sc(C(=O)N2CCCCC2)c1C (configuration not stated)	-2.8%	>57
87	COc1ccc(C2C(=O)N(C3CCCCC3)CC(=O)N2Cc2ccc3c(c2)OCO3)cc1 (configuration not stated)	-0.5%	>57
88	CC(C)CCn1cnc2c(cnn2-c2ccc(Cl)cc2)c1=O	-2.0%	>57
89	COc1ccc(-n2c(N)c(Br)c(=O)[nH]c2=O)cc1	-12.9%	>57
90	Cc1nc2cnc(Oc3cccc(Cl)c3)nc2n(Cc2ccc(F)cc2)c1=O	?	>57
91	CCOC(=O)N1CCN(c2cc3nccnc3cc2F)CC1	-16.0%	>57
92	Cc1ccc(C(=O)CC2(O)C(=O)N(Cc3ccccc3)c3ccccc32)o1 (configuration not stated)	-11.4%	>57
93	CCC(=O)Nc1ccc(C(=O)n2nc(C)cc2C)cc1	4.2%	nt
94	O=S(=O)(c1ccc(OCc2nc3ccccc3s2)c(Cl)c1)N1CCOCC1	1.6%	>57
95	COc1ccc(C(=O)Nc2ccc(Cl)cc2C(=O)NCc2ccco2)cc1OC	7.94µM*	nt
96	COCCn1c(=O)c(-c2cccc(C#N)c2)nc2cnc(N(C)C)nc21	?	>57
97	COCCCNC(=O)CCCOc1ccccc1	-3.7%	nt
98	COc1ncnc2c1N=C1CC(C)(C)CC(N)=C1S2	-8.9%	>57
99	CO[C@@H]1CC=C2CCN3CCC4=C(CC(=O)OC4)[C@]23C1	2.8%	>57
100	COc1ccc2c(c1)CC1(CN2C)C(=O)NC(=O)N(c2ccc(F)cc2)C1=O (configuration not stated)	?	>57
101	Cn1c(=O)c(-c2ccc(F)cc2)nc2cnc(Nc3ccccc3)nc21	-6.7%	>57
102	Cc1ccc(Cn2nnnc2CN2CCC(n3nnc4ccccc43)CC2)cc1	2.2%	>57
103	NC1(C(=O)O)C[C@H](C(=O)O)[C@H](C(=O)O)C1 (some centres not stated)	2.6%	>57
104	CCOC(=O)CSC1=C(C#N)C(c2ccco2)C(C(=O)OCc2ccccc2)=C(C)N1 (configuration not stated)	-17.1%	>57
105	O=C1C=C(NCCO)C(=O)c2cnccc21	?	nt
106	CCOc1ccc(-c2nnn(CC(=O)NCc3cccs3)n2)cc1	-4.4%	>57
107	CC1CCC2C(=O)OC(Cc3ccccc3)CN2C1c1ccc(Br)cc1 (configuration not stated)	?	nt
108	CCCCCCNC(=O)CC(NS(=O)(=O)c1ccc(NC(C)=O)cc1)C(C)C (configuration not stated)	nt	>57
109	CCCCC(NS(=O)(=O)c1ccc(OC)cc1)C(=O)O (configuration not stated)	4.2%	nt
110	CN(CC(=O)NC(=O)NCc1ccco1)Cc1nc2ccccc2c(=O)[nH]1	-22.4%	>57
111	CC(=O)Nc1nonc1-c1ccccc1	-13.4%	nt
112	CCOC(=O)N1CCC(NC(=O)CCc2c(C)nc3c(c(C)nn3C(C)(C)C)c2C)CC1	-13.5%	>57

Additional structures follow.
nr	Structure	Anthrax LT inh	SmPrx2 inh
113	O=C1NCCc2c1[nH]c1c(Cl)ccc(Cl)c21	nt	>57
114	Cn1cccc1C(=O)N1CCC2(CCN(Cc3ccc(C#N)cc3)CC2)CC1	?	>57
115	Cn1c(-c2ccccc2)c(O)c(=O)c2ccccc21	-2.2%[8 µM]	nt
116	CC1CCCCN1C(=O)Cc1ccc(Cl)cc1 (configuration not stated)	5.9%	>57
117	O=C(c1cc(Br)ccc1Cl)N1CCC2(CC1)OCCO2	-1.4%	>57
118	COC(=O)C1CCN(C(=O)COC(=O)Cc2c[nH]c3ccccc23)CC1	?	>57
